Assay outcomes deposited in PubChem BioAssay by National Center for Advancing Translational Sciences (NCATS).
VACV mCherry inh – qHTS for Stage-Specific Inhibitors of Vaccinia Orthopoxvirus: mCherry Reporter Primary qHTS. Vaccinia virus mCherry reporter infection, fluorescence; about a quarter of the inactives have no number. 310,000 compounds, 0.63% hits. Potency, µM (doses to about 36.5 µM), for inactives: top-dose activity change, negative = inhibition, actives largely listed as inhibitors; active = well fitted inhibition curve with a large enough effect; inconclusive = small, poorly fitted or top-dose-only effect; inactive = no such curve, though single readings can be large or run the other way; tested in A549 cells; note: nearly all actives have a fitted effect of over 35% in size; inactives centre near -10
VACV Venus inh – qHTS for Stage-Specific Inhibitors of Vaccinia Orthopoxvirus: Venus Reporter Primary qHTS. Vaccinia virus Venus reporter expression, fluorescence. 330,000 compounds, 0.46% hits. Potency, µM (highest dose often 36.5 µM), for the others: at the highest dose activity change, negative = inhibition, actives largely listed as inhibitors; active means well fitted inhibition curve with a large enough effect; inconclusive means small, poorly fitted or top-dose-only effect; inactive means no such curve, though single readings can be large or run the other way; tested in A549 cells; note: nearly all actives have a fitted effect of over 30% in size; inactives centre near -10
Active calls of the source: *; i = inactive; ? = inconclusive; . = no result given; [ ] = remark or other dose. % is set by controls: 0 for no effect and ±100 for the full control effect; potency is the fitted concentration of half-maximal effect. An unsorted share of the library; any-hit rate near 0.82%.

SMILES | VACV mCherry inh | VACV Venus inh
COc1ccc(CNC(=O)[C@H](C)N2C(=O)N3CCc4c([nH]c5ccccc45)[C@@]3(C)C2=O)cc1OC | -21% | -19%
O=C(CN1CCOCC1)N/N=C/c1cc2ccccc2nc1Cl | -18%[1.46 µM] | -11%
Cc1oc(-c2cccc(Cl)c2)nc1CSc1nnc(C)n2c1cc1occc12 | 4% | -6%
O=C(NCC1CCCO1)c1ccc(CNS(=O)(=O)c2cccc(Cl)c2)cc1 (configuration not stated) | -8% | -3%
CCN1CCN(C(C(=O)NC2CCCCC2)c2cc3ccccc3o2)CC1 (configuration not stated) | 7% | -7%
Fc1ccc2nc(N3CCCC3)sc2c1 | -11% | -9%
CC1CN(C=O)CC(C)N1CCN1C(C)CN(C=O)CC1C (configuration not stated) | -11% | -10%
COc1cccc(CCNC(=O)CCc2nnc(-c3cc(C)oc3C)o2)c1 | -15% | -5%
O=C(Nc1nc2ccc(Cl)cc2s1)c1ccco1 | -12% | -25%
CCOc1ccc(C(=O)COC(C)=O)cc1 | . | -2%
CCOC(=O)c1c(C)[nH]c(C(=O)COC(=O)CNC(=O)c2ccc(Br)cc2)c1C | -7% | -2%
CC(=O)C(Cl)C(=O)Nc1ccccc1 (configuration not stated) | -12% | -26%
CCC(=O)Nc1cc2c(cc1C(C)=O)OCCO2 | . | 11%
O=C(c1ccco1)N1CCN=C1SCc1cccnc1 | -6% | -20%
Cc1cccc(NC(=S)N/N=C/c2ccc([N+](=O)[O-])s2)c1 | 11µM* | 22µM*
COc1cccc(-c2ncc3ccccc3c2COC(=O)c2ccc(Br)cc2)c1 | -12% | -29%
Fc1ccccc1CN(CCN1CCOCC1)C(=S)Nc1ccccc1Cl | -10% | -10%
CC1(Cc2ccc(Cl)s2)C(=O)Nc2c(Cl)ccc(Cl)c21 (configuration not stated) | -26% | -14%
Cc1cccc(N2CCN(C(=O)C3CCCN(S(=O)(=O)c4ccc(Br)s4)C3)CC2)c1C (configuration not stated) | -14%[7.34 µM] | -10%[7.34 µM]
Cc1ccc(N2CCNCC2C)cc1 (configuration not stated) | -21% | -13%
O=C(/C=C/c1ccco1)Nc1ccc(Oc2ccccc2)cc1 | ? | ?
COc1cc(OC)c(/C=N/NC(=O)Cn2nc([N+](=O)[O-])cc2C)c(OC)c1 | -13% | -9%
O=c1c2c(nc3nc(CCc4ccccc4)[nH]n13)CCC2 | . | 0%
COc1ccc(-c2cc(C(=O)OC(C)C(=O)Nc3c(C)n(C)n(-c4ccccc4)c3=O)c3ccccc3n2)cc1 (configuration not stated) | -14% | -6%
O=C(NCC(=O)N1CCN(c2ccccc2O)CC1)C1CCCCC1 | -21% | -15%
COC(=O)Cn1c(C2CC(=O)N(c3c(C)cccc3C)C2)nc2ccccc21 (configuration not stated) | i | ?
C=CCn1c(N)c(S(=O)(=O)c2cccs2)c2nc3ccccc3nc21 | . | -18%
CCc1noc2c1/C(=N\O)CC(c1ccccc1)C2 (configuration not stated) | . | ?
COc1ccc(C=NC(CO)C(O)c2ccc([N+](=O)[O-])cc2)cc1 (configuration not stated) | . | ?
Cc1ccc(S(=O)(=O)N2CCOCC2)cc1NC(=O)CNCC1CCCCC1 | i | 4%
O=C(c1ccc(Cl)c([N+](=O)[O-])c1)N(Cc1ccccc1)C1CCS(=O)(=O)C1 (configuration not stated) | i | 0%
CC(C)c1ccc(NC(=O)c2ccc(NC(=O)CCS(=O)(=O)c3cccs3)cc2)cc1 | -11% | -2%
c1ccc(CSCc2nc3ccccc3[nH]2)cc1 | 2% | -14%
COc1ccccc1CN1CC(C(=O)N(CCO)Cc2cccs2)CCC1=O (configuration not stated) | -17% | -5%
Cc1cccc(OP(=O)(Nc2cccnc2)Oc2cccc(C)c2)c1 | -13% | -9%
NC(=O)C(=O)NN=C1C2CC3CC(C2)CC1C3 | 5% | 2%
COc1cccc(-n2nnnc2SCC(=O)NCCc2ccccc2)c1 | . | -27%
COc1ccc(C(=O)Nc2ccc3nc(SCc4ccc(C)cc4)sc3c2)cc1 | ? | ?
O=C(CCCc1ccccc1)Nc1cccnc1Cl | -6% | -6%
COc1ccc(-c2sc3ccccc3c2-c2ccc(O)cc2)cc1 | ? | -20%
COc1ccc(-c2oc3ccccc3c(=O)c2O)cc1OC | i | 1%
O=C(c1nc2ccc(Cl)cn2c1CN1CCC[C@H]1CO)N1CCc2ccccc2C1 | -11% | -15%
CCc1c(C#N)c(SCCC(=O)Nc2cccc(OC)c2)nc2c1C(=O)CC(C)(C)C2 | . | -27%
CCN1C(=O)CC(N2CCN(C(c3ccccc3)c3ccccc3)CC2)C1=O (configuration not stated) | -7% | -15%
COc1ccc(OC)c(C(c2nnnn2C2CCCC2)N2CCN(c3ccccc3)CC2)c1 (configuration not stated) | . | -31%
O=C1OC(c2ccccc2)(c2cc(Br)ccc2O)c2ccccc21 (configuration not stated) | -23% | -24%
CC1CCCCC1NC(=O)CCNS(=O)(=O)c1ccc(Cl)cc1 (configuration not stated) | i | -5%
Cc1cc(C)c2c(=O)cc(C(=O)Nc3sc4c(c3C(=O)NCc3cccnc3)CCCC4)oc2c1 | 6% | 4%
COc1ccc(NC(=O)C2(C)CCN2CCc2ccccc2)cc1OC (configuration not stated) | -9% | -4%
COc1cc(C2c3[nH]c4ccccc4c3C[C@H]3C(=O)N(CCO)CC(=O)N23)cc(OC)c1OC (some centres not stated) | -29% | -19%
CCOC(=O)c1c(NC(=O)CSc2ncnc3ccccc23)sc(C)c1C | -7% | 13%
O=C(O)CCC(=O)N1CCN(c2cccc(Cl)c2)CC1 | -14% | -10%
Cc1cc(-c2c(C(=O)N3CCOCC3)c(C)nn2-c2ccccc2)no1 | -4% | -8%
CCCS(=O)(=O)c1c(S(=O)(=O)CCC)c2cnccn2c1C(=O)c1ccc(CC)cc1 | . | -8%
Cc1ccc(NC(=O)CSc2nnc(-c3nnn(-c4ccc(F)cc4)c3C)o2)cc1Br | -10% | -6%
CC(C)CCn1c(C(C)O)nc2ccccc21 (configuration not stated) | . | -12%
c1ccc2c(-c3nc(-c4ccncc4)no3)cccc2c1 | -5% | -7%
Cc1ccc(S(=O)(=O)N(C)c2ccc(C)c([N+](=O)[O-])c2)cc1 | -29% | -8%
FC(F)(F)c1ccccc1Cc1c(-c2ccco2)nc2ccc(Br)cn12 | i | -1%
COc1cc(/C=C/C(=O)OCC(=O)c2ccc[nH]2)ccc1O | i | -13%

Additional results
SMILES | VACV mCherry inh | VACV Venus inh
Cc1nn2c(-c3ccco3)ccnc2c1-c1ccc(F)cc1 | -11% | -13%
CCN(CC)CCN(C(=O)c1ccc2c(c1)CCCC2)c1nc2ccc(OC)cc2s1 | i | -22%
CC(/C=N/NC(=O)CSc1nc(C)cc(C)n1)=C\c1ccccc1 | -16% | -10%
COC(=O)c1cnc(N2CCOCC2)nc1C(F)(F)F | -8% | -9%
COc1ccc(CN(C(=O)CCC(=O)Nc2cc(C)on2)C(C(=O)NC(C)(C)C)c2cccc(OC)c2OC)cc1 (configuration not stated) | -8% | 10%
O=C(Nc1ccc(N2CCOCC2)cc1)c1cnsn1 | -14% | -8%
CC(=O)c1ccc(OCC(O)CN2CCN(c3ccccn3)CC2)cc1 (configuration not stated) | 22% | -6%
C=CCn1c2c(c3ccccc31)CCC2 | i | -7%
O=C1Cc2ccccc2Sc2c(OCCN3CCCCC3)cccc21 | -22% | -23%
CC(C)C[C@H](NC(=O)c1nc[nH]c1C(=O)N[C@@H](CC(C)C)C(=O)OC(C)(C)C)C(=O)OC(C)(C)C | ? | 10µM*
O=c1ccc2cc(S(=O)(=O)Nc3ccc(F)cc3)ccc2o1 | ? | -17%
COc1ccc(NC(=O)CSc2nnc(CNC(=O)COc3ccc(Cl)cc3)o2)c(OC)c1 | 0% | -19%
Cc1cc(C)c(C)c(S(=O)(=O)NCC(=O)NCc2ccco2)c1C | -4% | -5%
NS(=O)(=O)c1ccc(CCNC(=O)CSc2nc3ccsc3c(=O)n2CCCCCC(=O)O)cc1 | i | -9%
O=C(NCC1CCCN(C(=O)c2cscn2)C1)c1ccc(-c2ccccc2)cc1 (configuration not stated) | i | -20%
C[C@H](CO)N1C[C@H](C)[C@H](CN(C)S(=O)(=O)c2ccc(F)cc2)OCc2cnnn2CCCC1=O | -14% | -7%
CCN(CC)C(=O)c1c([N+](=O)[O-])c(C(C)(C)C)nn1C | -12% | -2%
Cc1ccccc1-c1nc2cc(NC(=O)Cc3ccc(Cl)cc3)ccc2o1 | -23% | -14%
COCCNC(=S)N/N=C/c1ccc(OCc2ccc(C(=O)OC)cc2)cc1 | -8% | 2%
COc1cc(OC)cc(C(=O)NNC(=O)c2ccccn2)c1 | ? | ?
O=S(=O)(c1ccc(F)c(F)c1)N1CCCCCCC1 | -18% | -3%
COc1ccc(-c2cc3c(=O)n(CC(=O)NCc4ccccc4F)ncn3n2)cc1 | 1% | 4%
CCOc1ccccc1NC(=O)Nc1ccon1 | -1% | -12%
CCCCOC(=O)Cn1c(=O)c2c(nc(Br)n2Cc2ccccc2)n(C)c1=O | -7% | -17%
COC(=O)c1ccc(CSc2nc3ccccc3c(=O)n2-c2cccc(OC)c2)o1 | -13% | -6%
CC1CSc2n(-c3cccc(C(F)(F)F)c3)cc(-c3ccccc3)[n+]21 (configuration not stated) | 6% | 2%
N#CC1=C(N)Oc2c(sc3ccccc23)C1c1ccco1 (configuration not stated) | . | 20%
Cc1nc(N)sc1-c1csc(NCc2ccccc2)n1 | -8% | -2%
CC(C)C(NS(=O)(=O)/C=C/c1ccccc1)C(=O)NCc1ccc(F)cc1 (configuration not stated) | i | 6%
O=C(COC(=O)c1ccccc1O)Nc1ccc2ccccc2c1 | -20% | -4%
O=C(NCC1CCCO1)c1c[nH]c2ccc(S(=O)(=O)Nc3ccc(F)cc3F)cc2c1=O (configuration not stated) | -2% | -4%
Cc1ccc2[nH]c(=O)c(CN(Cc3cccnc3)Cc3nnnn3CCN3CCOCC3)cc2c1 | -8% | -10%
COc1ccccc1N1Cc2ccccc2C1 | i | 4%
CCNC(=O)NC(=O)C(C)OC(=O)C1CCN(S(=O)(=O)c2ccc(C)c(C)c2)CC1 (configuration not stated) | i | -4%
CC1(C(=O)NCc2ccccc2Br)CCN1C(=O)CCc1ccc(Cl)cc1Cl (configuration not stated) | 0% | -15%
COc1ccc(C(=O)Nc2ccccc2-c2nnn(CC(=O)NCc3ccco3)n2)cc1 | -6% | -23%
CCN(C(=O)CSc1nnc(C)n2c1cc1occc12)c1ccccc1 | -11% | -11%
CC(=O)Nc1cc(C(=O)N2CCc3ccccc3C2)ccc1Sc1ccc(C)cc1 | -14% | -12%
CCOC(=O)C/C(C)=N/NC(=O)CN(c1ccc(Br)cc1)S(=O)(=O)c1ccccc1 | -13% | -12%
COc1ccc(-c2ccc(SCC(=O)NCc3ccco3)nn2)cc1OC | i | -17%
CN1CCN(CCc2nc3cc(NC(=O)COc4ccc([N+](=O)[O-])cc4)ccc3n2C)CC1 | -23% | -7%
COc1ccc(/C=N/NC(=O)C[n+]2ccccc2)c(OC)c1OC | -4% | 1%
